# Screens (PubChem BioAssay)
# eIF4H inh: inhibitors of RNA binding by human eIF4H; hit rate 0.94% among 290,000; AID 2012; Q15056; inhibition, % at 35 µM; eIF4H fluorescence polarization binding assay;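 active means 50% or more with normal probe brightness, or confirmed in later tests; inconclusive means above 50% with abnormal brightness, or retests that disagree; inactive means below 50% or failed in later tests; about a fifth of its hits are not listed in these tables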;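 further: calls also rest on retests at 20 µM and on dose response follow-up; 0% = protein and probe with vehicle and 100% = probe without protein; strong numbers were not always called active; many hits fall short of the cut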
# CSC inhib: cancer stem cell inhibition. cancer stem cell-like cells viability, luminescence. inhibition, % at 7.5 µM. hit rate 1.1% among 300,000. AID 2717;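 active means mean at 75% or more and at least half the replicates too; inconclusive means mean and replicates disagree; tested in HMLE shEcad cells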;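 further: 0% = median of negative and 100% = median of positive control wells; the first replicate is given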
# PABP polyA inh: PABP-poly(A) binding inhibition; PABP-poly(A) RNA binding, fluorescence polarization; inhibition, % at 35 µM; hit rate 1% among 290,000; AID 2014;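 active means 50% or more with normal probe brightness, or confirmed in later tests; inconclusive means above 50% with abnormal brightness, or retests that disagree; inactive means below 50% or failed in later tests; about a fifth of its hits are not listed in these tables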;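 further: calls also rest on retests at 20 µM and on dose response follow-up; controls were probe without protein and protein plus probe with vehicle; some compounds called inactive have numbers as strong as hits; many hits fall short of the cut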
# Target sequence (P11940 whole entry, looked up): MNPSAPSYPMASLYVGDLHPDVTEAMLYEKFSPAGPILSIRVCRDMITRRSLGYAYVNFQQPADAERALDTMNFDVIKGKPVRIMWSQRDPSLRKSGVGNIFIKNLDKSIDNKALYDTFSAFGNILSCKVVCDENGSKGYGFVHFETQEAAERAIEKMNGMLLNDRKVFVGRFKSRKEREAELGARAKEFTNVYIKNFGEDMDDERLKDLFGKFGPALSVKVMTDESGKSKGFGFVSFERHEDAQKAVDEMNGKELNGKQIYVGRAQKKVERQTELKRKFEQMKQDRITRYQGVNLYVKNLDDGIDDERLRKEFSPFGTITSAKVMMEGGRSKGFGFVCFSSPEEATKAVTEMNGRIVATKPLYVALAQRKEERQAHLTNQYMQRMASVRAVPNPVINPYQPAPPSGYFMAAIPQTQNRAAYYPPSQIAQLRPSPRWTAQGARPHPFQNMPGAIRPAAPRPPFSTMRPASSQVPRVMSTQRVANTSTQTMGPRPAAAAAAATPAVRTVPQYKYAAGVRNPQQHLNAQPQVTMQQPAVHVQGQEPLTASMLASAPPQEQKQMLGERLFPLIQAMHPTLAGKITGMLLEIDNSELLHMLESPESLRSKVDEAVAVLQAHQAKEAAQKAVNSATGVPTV
# HIV Env fusion: blocks HIV Env-driven cell-cell fusion; HeLa-JRFL Env/CEM21 cell fusion, luciferase; AID 651610; inhibition, % at 12.3 µM; hit rate 1.1% among 360,000;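 active means mean replicate inhibition score of at least 50 and every replicate individually at or above 50; inconclusive means only one of the two criteria met; inactive means mean below 50 and not all replicates reaching 50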;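 further: 0% = plate neutral controls and 100% = maraviroc near 300 nM; one replicate is shown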
# Rce1 inhib: inhibitors of yeast Ras-converting enzyme. hit rate 0.27% among 290,000. Q03530. calls only. AID 2563. yeast membranes, quenched prenylated peptide cleavage fluorescence;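 active means fall in fluorescence gain of 50% or more versus controls, with final raw signal at or below 3038400; inconclusive means same 50% fall but final raw signal above 3038400; inactive means fall in fluorescence gain under 50%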;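 further: plate controls were neutral control wells for no effect and wells lacking membranes for full effect; tested at 10 µM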
# Yeast UUG start: yeast start codon fidelity modulation; S. cerevisiae UUG-firefly luciferase reporter, luminescence/redox ratio; activity score, % at 18.7 µM; hit rate 0.13% among 350,000;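 active means replicate mean at a twofold rise or more, about +100% in these data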;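 further: firefly luciferase made from a UUG start codon reports start codon fidelity; reporter light over untreated wells divided by growth signal over untreated wells; some hits fall short of that in this replicate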
# MT1-MMP act inh: inhibitors of human MT1-MMP activation; P50281; HT1080 RFP-PRO-GFP cells, GFP/RFP ratio fluorescence, overnight; percent of plate control window, DMSO zero; GFP/RFP ratio change, % at 20 µM; hit rate 0.061% among 360,000; AID 651647;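 active means GFP/RFP ratio change of at least 30% with cell ATP level not reduced by more than half and red fluorescence within 50% of control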; further: strong numbers were not always called active
#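 Assay system: HT1080 RFP-PRO-GFP cells. Benchmarks: DMSO vehicle wells and RFP-L50D-GFP reporter cell wells. Times: overnight cell settling, then overnight compound exposure, 37 °C, 5% CO2. Compound: 20 µM single dose, 1% DMSO. Read-out basis: GFP/RFP fluorescence ratio.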
# MT1-MMP act inh RFP: second read-out of MT1-MMP act inh, no call of its own (marks repeat the call); RFP signal change, %; measured here: RFP expression control read;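 0 = vehicle wells; hits needed this value within 50% of zero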
# An asterisk follows results filed as active; i = inactive; ? = inconclusive; / = not tested or not shown. An unsorted share of the library; overall some 2.9% were active at least once.
SMILES,eIF4H inh,CSC inhib,PABP polyA inh,HIV Env fusion,Rce1 inhib,Yeast UUG start,MT1-MMP act inh,MT1-MMP act inh RFP
CCN(CC)C(=O)c1sc(NC(=O)c2ccoc2C)c(C(=O)OC)c1C,-2.4,9.5,5.2,/,/,6.2,6.3,0.5
CNC(=O)c1c(Cl)cnn1-c1ccc(C)cc1,-9.4,-20.6,2.5,-39.4,i,/,3.1,3.7
COc1ccc(C(c2sc3nc(C)nn3c2O)N2CCCCC2)cc1 (stereo unspecified),4.6,-4.5,0.1,3.1,i,-13.5,-5.5,2.5
Cc1cc(=O)n(CC(=O)O)c2ccccc12,-6.4,-22.9,0.9,-1.8,i,/,-2.1,2.6
CC(C)NCC(O)COCCOc1ccc(Cl)cc1 (stereo unspecified),-5.6,4.1,14.1,-12.3,i,-9.3,2.9,5.0
CC1(C)Cc2noc(N)c2C(C)(C)N1OC(=O)c1ccccc1,3.2,-8.4,8.0,-5.4,/,-4.4,-8.7,-6.4
Cc1ccc(S(=O)(=O)Cn2nnnc2C(c2ccc(F)cc2)N2CCC(C(N)=O)CC2)cc1 (stereo unspecified),3.3,-3.5,-1.0,-55.2,i,12.3,-1.2,1.6
Cc1nn(-c2cccc(Cl)c2)c2nc(-c3ccncc3)cc(C(=O)N3CCOCC3)c12,1.6,-2.8,-2.5,41.9,/,/,-11.1,-10.9
Cc1ccc(OCCNC(=O)CCC(=O)N2CCOCC2)cc1,/,-5.5,/,-9.0,i,-10.8,0.2,-0.1
COc1ccc(-n2nc(C(=O)NCC(=O)Nc3cccc(NC(C)=O)c3)c3ccccc3c2=O)cc1,-6.7,-20.3,-1.5,6.2,/,/,2.9,0.4
COc1ccc(-c2nnc(SCc3ccccc3)n2N)cc1,-1.8,-2.9,-6.1,-84.9,i,-13.5,1.3,2.4
O=C(Nc1cccc(F)c1)C1CCN(S(=O)(=O)c2cnc[nH]2)CC1,-6.1,-1.4,-4.7,-1.6,i,-9.6,0.5,0.9
CNc1cncc(-c2ccccc2CO)n1,/,/,/,-14.1,/,-21.6,-2.7,1.4
COc1ccc(NS(=O)(=O)c2cc(NC(=O)c3ccc(S(=O)(=O)N(C)C)cc3)ccc2N2CCOCC2)cc1,/,-5.1,/,8.7,/,-9.2,-4.9,-4.5
N#Cc1ccsc1NC(=O)COC(=O)c1cc2ccccc2cc1O,37.8,-17.7,-5.5,-59.2,i,/,-0.4,-0.7
O=C(N/N=C/c1cccc2ccccc12)c1cccs1,-4.0,-8.2,1.1,-132.6,i,-5.2,4.3,-1.5
COc1ccc(CCNC(=O)c2cc(-c3ccccc3)on2)cc1OC,5.4,8.7,-16.1,/,i,-4.9,8.9,0.4
COCCCNc1nc2nonc2nc1N(C)CC1CCCN1C (stereo unspecified),-4.1,-20.3,-5.1,-8.9,i,/,1.1,6.2
COC(=O)C1=C(C)N(CCCC(=O)O)C(=O)NC1c1cccc(Cl)c1Cl (stereo unspecified),/,-2.9,/,8.6,i,-11.2,-1.8,-0.9
CCCc1cc(=O)[nH]c(Nc2ccc(N3CCCCC3)cc2)n1,-4.8,-0.1,-0.1,-20.7,i,-5.2,2.8,-5.4
CCCCn1nnnc1SCC(=O)N1CCOCC1,-6.8,-17.9,16.7,17.8,i,0.6,3.5,2.8
O=C(CN1CCCSc2ccccc21)N1CCN(S(=O)(=O)c2ccccc2)CC1,/,/,/,9.2,/,23.7,1.2,-0.4
Fc1ccc(-c2ccc(/C=N\n3cnnc3)o2)cc1Cl,-2.9,3.3,0.0,/,i,/,-1.7,0.8
Cc1oc(-c2ccc(Cl)cc2)nc1CS(=O)CC(=O)NCCCN1CCCC(C)C1 (stereo unspecified),-4.9,-2.4,6.2,5.3,i,-21.8,-0.2,4.8
COc1cccc(C2C(C#N)=C(N)Oc3c2oc(CO)cc3=O)c1 (stereo unspecified),18.4,-5.8,-5.6,/,i,-10.6,-3.0,4.5
O=C(NCCc1ccccc1F)c1cccc2cccnc12,-3.3,7.8,5.8,-38.3,i,0.2,-7.2,-3.0
O=C(CCCn1c(=S)[nH]c2cc3c(cc2c1=O)OCO3)N1CCN(C2CCCCC2)CC1,-3.4,-4.8,-6.0,-1.0,i,-8.5,2.6,0.9
O=C(c1ccc2n[nH]nc2c1)N1CCN(c2ccc(C(F)(F)F)cn2)CC1,/,/,/,5.1,/,-17.1,0.4,-16.3
O=C(CC1c2ccccc2Oc2ccccc21)Nc1ccccc1F,-9.4,-11.7,-6.5,/,i,-10.0,0.7,-4.0
O=C(Nc1ccc(F)cc1)C1CCCN(S(=O)(=O)c2ccc3[nH]c(=O)ccc3c2)C1 (stereo unspecified),-8.2,/,6.0,1.5,i,-4.8,-4.8,-14.1
Cc1c(CC(=O)N2CCN(C(=O)C3COc4ccccc4O3)CC2)c(=O)oc2cc(O)cc(O)c12 (stereo unspecified),7.8,10.6,16.1,-2.7,i,10.9,1.8,4.3
Cn1c(SCC(=O)Nc2ccccc2F)nc2c(c1=O)SCC2,4.3,-0.9,-8.5,22.2,i,-16.2,-1.7,-16.5
Cc1ccc2nc(SCC(=O)Nc3nonc3C)[nH]c2c1,-8.0,/,-8.8,-7.6,i,-10.7,3.0,1.4
CC(/C=N/NC(=O)c1n[nH]c2c1CCC2)=C\c1ccccc1,0.1,47.7,3.9,-333.7,i,-14.4,21.7,-6.8
COc1ccc(NS(=O)(=O)c2cccc(C(=O)N/N=C/c3ccc4c(c3)OCCO4)c2)cc1,-8.8,-3.2,-4.5,3.9,i,/,2.7,2.2
Cc1ccc(C(=O)NC(=S)Nc2cccc(NC(=O)c3ccccc3Cl)c2)cc1[N+](=O)[O-],1.6,25.0,0.7,10.0,i,-17.8,2.5,-6.5
COc1ccc(CNC(=O)CCCn2c(=O)c3cccn3c3cccnc32)cc1,/,/,/,-31.4,/,-13.5,-2.0,0.0
COc1ccc(/C=C2\CCCC(C(=O)C(F)(F)F)=C2O)cc1OC,0.6,-6.5,-0.4,/,i,/,/,/
COc1ccc(OCCNC(=O)c2ccc3nc(C)c(N(C)Cc4ccc(NC(C)=O)cc4)n3c2)cc1,/,/,/,-37.8,/,21.8,0.8,-2.4
O=C(Nc1nnc(S(=O)(=O)N2CCCCC2)s1)c1ccccc1Br,-4.7,21.6,-9.6,/,i,-7.7,8.0,0.5
CNc1nc(C)c(C(C)(C)C)s1,10.2,-2.2,4.4,-4.2,/,-22.9,-0.7,1.4
CC(C)(C)c1ccc(C(=O)OCC(=O)Nc2cccc(S(=O)(=O)NC3=NCCC3)c2)cc1,/,/,/,4.2,/,4.5,1.2,6.5
O=C(c1ccc(-n2cccc2)cc1)N1CCN(Cc2ccccc2)CC1,-6.9,-2.4,3.3,?,i,-11.8,4.0,-4.4
COc1cccc(OCC(O)CNC2CCCC2)c1 (stereo unspecified),-1.0,-9.5,13.6,-5.6,i,-3.6,5.3,5.8
CCCn1cnc2c(c1=O)c1nc3ccccc3nc1n2Cc1ccccc1OC,-1.2,/,4.4,/,i,/,/,/
CC1(C)C(=O)C2(CCCC2)C(=O)OC1c1ccco1 (stereo unspecified),-4.7,16.7,-4.5,/,i,-0.5,-2.1,7.0
CCOC(=O)N1CCC(NC(=O)CCc2cn(C)c3ccccc23)CC1,0.5,-0.3,-3.1,-41.7,i,-9.0,5.6,6.7
CCOn1c(=O)c(-c2cc(OC)ccc2OC)[n+]([O-])c2ccccc21,-4.5,-15.4,6.1,9.8,i,-3.5,-0.5,2.7
CC(C)NC(=S)NCc1cccnc1,5.2,-10.4,-3.8,7.4,i,-24.5,-7.7,-1.5
O=C(CN1CCN(c2ccc(O)cc2)CC1)N1CCc2ccccc21,-1.3,37.1,5.4,-6.2,i,-14.3,-5.9,-0.6
CCCCNC(=O)CSc1nnc(Cc2ccccc2)n1CC,3.9,/,-2.0,-47.8,i,-18.3,4.7,8.7
CCOC(=O)c1cc2c(ccn2C)n1CC(=O)N1CCN(c2ccccc2OC)CC1,39.0,/,36.2,/,i,/,/,/
COc1cccc(C2CC(c3ccccc3OC)n3ncnc3N2)c1 (stereo unspecified),-3.1,/,-10.9,2.4,i,-11.8,1.1,-1.2
COc1cc2c(C(=O)N(C)c3ccc(F)cc3)cn(C)c(=O)c2cc1OC,5.0,-7.8,4.0,9.3,i,-0.1,2.8,2.2
CN(C(=O)COC(=O)c1ccc[nH]c1=O)C1CCCCC1,-0.7,-5.6,-6.1,-0.4,i,/,0.8,5.9
O=C(O)CCN1Cc2ccccc2C1=O,-10.2,-16.4,0.0,-12.5,i,-11.7,-1.0,0.1
COc1ccc(NC(=O)CCN2CCN(S(=O)(=O)c3cc(Cl)ccc3OC)CC2)cc1,-12.1,-0.1,2.0,/,i,-13.6,4.8,-2.3
Cc1ccc(NC(=O)CN(C)C(=O)c2ccc(Sc3nncn3C)c([N+](=O)[O-])c2)cc1,/,-1.5,/,1.0,/,-15.1,0.6,2.0
COC(=O)Cc1cc(OC)c(OC)cc1S(=O)(=O)N(C)C,5.3,1.6,12.5,8.2,i,/,-1.2,2.8
O=C(c1ccc(N2C(=O)CCC2=O)cc1)N1CCN(c2ccccc2)CC1,-3.6,-15.5,0.6,/,i,-0.5,1.7,1.1

# Other structures follow.
SMILES,eIF4H inh,CSC inhib,PABP polyA inh,HIV Env fusion,Rce1 inhib,Yeast UUG start,MT1-MMP act inh,MT1-MMP act inh RFP
CSc1ncc(C(=O)Nc2cccc(Cl)c2C)c(C)n1,3.4,-8.6,0.3,4.8,i,-2.3,-5.1,-2.7
O=C(C1CCN(S(=O)(=O)c2ccc(Cl)cc2)CC1)N1CCOCC1,8.6,1.2,16.5,-65.5,i,-18.6,-2.6,-2.7
Cc1ccc(CN2CCC(Oc3cccc(C(=O)NCc4cccnc4)c3)CC2)o1,10.4,-6.2,5.1,-1.2,i,-4.9,-0.8,-1.0
Cc1ccc(N2CC(C(=O)NC3CCCCCC3)CC2=O)cc1 (stereo unspecified),/,/,/,19.7,/,-8.4,0.9,2.5
COc1ccc(/C(C)=N/N2CCOCC2)c(O)c1,13.3,4.5,-0.6,12.7,i,-10.6,0.0,3.2
O=C(O)c1ccccc1OCCOc1ccccc1C(=O)O,7.8,-3.5,6.9,/,i,-15.6,0.8,2.7
CC[C@]12c3[nH]c4ccccc4c3CCN1C(=O)C(CC(=O)NCCN1CCOCC1)C[C@@H]2C(=O)N1CCN(C(=O)C2CC2)CC1 (stereo partly specified),/,-14.7,/,-17.9,/,3.2,0.3,5.0
Cn1c(=O)c2c(nc(N3CCNCC3)n2Cc2cccc3ccccc23)n(C)c1=O,1.7,18.4,-4.0,/,i,0.7,-8.5,0.3

# Molecules listed so far that have a COOH group (four):
SMILES,eIF4H inh,CSC inhib,PABP polyA inh,HIV Env fusion,Rce1 inhib,Yeast UUG start,MT1-MMP act inh,MT1-MMP act inh RFP
Cc1cc(=O)n(CC(=O)O)c2ccccc12,-6.4,-22.9,0.9,-1.8,i,/,-2.1,2.6
COC(=O)C1=C(C)N(CCCC(=O)O)C(=O)NC1c1cccc(Cl)c1Cl (stereo unspecified),/,-2.9,/,8.6,i,-11.2,-1.8,-0.9
O=C(O)CCN1Cc2ccccc2C1=O,-10.2,-16.4,0.0,-12.5,i,-11.7,-1.0,0.1
O=C(O)c1ccccc1OCCOc1ccccc1C(=O)O,7.8,-3.5,6.9,/,i,-15.6,0.8,2.7
